# RanGTP-Impb inh: inhibitors of RanGTP-importin-beta interaction, primary screen, biochemical, FRET, CFP-Ran, YFP-importin-beta, homogeneous. cell-free CFP-Ran/YFP-importin-beta FRET ratio. inhibition, % (concentration not given with the values). 300,000 compounds, 1.1% hits. AID 2216;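 active = most replicates above 15%; inconclusive = exactly half above 15%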;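 note: 0% = DMSO wells and 100% = Ran loaded with GDP instead of GTP; wells of about 40 µL received 100 nL stock; the first replicate is given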
# AF4-AF9 inh: MLL-AF4/AF9 protein interaction inhibition; 350,000 compounds, 0.47% hits; AID 651704; P42568; inhibition, % at 10 µM; AlphaScreen, biotin-AF4 peptide binding to FLAG-AF9;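 active = every replicate reaching a set inhibition limit, whatever the replicate mean, cut at about 25% in these data; inconclusive = mean inhibition reaches that limit but some replicates miss it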;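 note: 0% = plate neutral control median and 100% = total signal loss; the record names both 10 and 1 µM as test concentration; the first replicate is given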
# Vif TR-FRET: HIV-1 Vif–A3G interaction blockers – biochemical, TR-FRET, GST-Vif 1-94, biotin-A3G peptide, dose response retest, primary screen (AID 1117319); inhibition, %, or IC50 in µM where a hit was titrated; TR-FRET GST-Vif / biotin-A3G peptide binding; higher % means a stronger effect; test concentration not given here; strong numbers were not always called active; 260,000 compounds, 0.57% hits;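 active = above the screen mean plus three standard deviations and confirmed in dose response; inconclusive = results disagree or hit not tested in dose response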;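 note: Vif residues 1-94 fused to GST binding biotinylated APOBEC3G peptide 110-148; 0% = full assay without inhibitor and 100% = GST in place of GST-Vif; retest series ran down from 100 µM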
# Calb FLC: C. albicans growth modulation with fluconazole; C. albicans CaCi-2 (fluconazole-resistant clinical isolate) + fluconazole, Alamar Blue growth, 48 h; growth inhibition, % (no concentration beside the values); 300,000 compounds, 0.57% hits; AID 1979;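 active = most replicates above 75%; inconclusive = exactly half above 75%; inactive = most below 75%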;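 note: all wells also contain fluconazole at 8 µg/ml as a sub-toxic cotreatment; 0% = median of DMSO wells and 100% = median of geldanamycin control wells; wells of about 8 µL received 7.5 nL stock; the first replicate is given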
# A1 inh: inhibitors of the anti-apoptotic protein A1, read as caspase activation; MEF A1-2A-BIM cells, Caspase-Glo 3/7 luminescence, 3 h; percent of clofoctol response, vehicle zero; caspase activation, % (concentration not given with the values); 330,000 compounds, 0.066% hits;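 active = over half of replicate activation scores above 10%, or exactly half above 10 with the replicate mean above 10; inconclusive = replicate mean below 10 yet half the replicates above 10; inactive = over half of replicates below 10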;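 note: wells of about 30 µL received 50 nL stock; many hits fall short of the cut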
# Beta cell apopt: beta cell apoptosis inhibition; INS-1E cytokine-induced death, ATP luminescence, 48 h; percent of positive-control rescue, neutral wells zero; protection from apoptosis, % (no concentration beside the values); 300,000 compounds, 0.8% hits; AID 435005;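 active = all replicates at 75% or more, or half of them and the mean; inconclusive = half reach 75% but not the mean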;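 note: 0% = cytokine-treated negative control wells and 100% = positive control rescue; higher means more ATP so stronger rescue from cytokine killing; wells of about 40 µL received 100 nL stock; the first replicate is given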
# LANA-H2A inh: blocks KSHV LANA binding to histone H2A/H2B; AID 2629; inhibition, % (test concentration not listed); 320,000 compounds, 0.6% hits; Q9QR71; cell-free LANA-H2A/H2B peptide, fluorescence polarization; in the data active = inhibition mostly above about 10%, no sharp cut-off; inactive = mostly below about 6.7%;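 note: stock transfer was 7.5 nL into about 10 µL; 0% = median of vehicle wells and 100% = median of positive control wells; one replicate is shown; the record names a cut of 25% in any replicate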
# Target sequence (Q9QR71 whole entry, looked up): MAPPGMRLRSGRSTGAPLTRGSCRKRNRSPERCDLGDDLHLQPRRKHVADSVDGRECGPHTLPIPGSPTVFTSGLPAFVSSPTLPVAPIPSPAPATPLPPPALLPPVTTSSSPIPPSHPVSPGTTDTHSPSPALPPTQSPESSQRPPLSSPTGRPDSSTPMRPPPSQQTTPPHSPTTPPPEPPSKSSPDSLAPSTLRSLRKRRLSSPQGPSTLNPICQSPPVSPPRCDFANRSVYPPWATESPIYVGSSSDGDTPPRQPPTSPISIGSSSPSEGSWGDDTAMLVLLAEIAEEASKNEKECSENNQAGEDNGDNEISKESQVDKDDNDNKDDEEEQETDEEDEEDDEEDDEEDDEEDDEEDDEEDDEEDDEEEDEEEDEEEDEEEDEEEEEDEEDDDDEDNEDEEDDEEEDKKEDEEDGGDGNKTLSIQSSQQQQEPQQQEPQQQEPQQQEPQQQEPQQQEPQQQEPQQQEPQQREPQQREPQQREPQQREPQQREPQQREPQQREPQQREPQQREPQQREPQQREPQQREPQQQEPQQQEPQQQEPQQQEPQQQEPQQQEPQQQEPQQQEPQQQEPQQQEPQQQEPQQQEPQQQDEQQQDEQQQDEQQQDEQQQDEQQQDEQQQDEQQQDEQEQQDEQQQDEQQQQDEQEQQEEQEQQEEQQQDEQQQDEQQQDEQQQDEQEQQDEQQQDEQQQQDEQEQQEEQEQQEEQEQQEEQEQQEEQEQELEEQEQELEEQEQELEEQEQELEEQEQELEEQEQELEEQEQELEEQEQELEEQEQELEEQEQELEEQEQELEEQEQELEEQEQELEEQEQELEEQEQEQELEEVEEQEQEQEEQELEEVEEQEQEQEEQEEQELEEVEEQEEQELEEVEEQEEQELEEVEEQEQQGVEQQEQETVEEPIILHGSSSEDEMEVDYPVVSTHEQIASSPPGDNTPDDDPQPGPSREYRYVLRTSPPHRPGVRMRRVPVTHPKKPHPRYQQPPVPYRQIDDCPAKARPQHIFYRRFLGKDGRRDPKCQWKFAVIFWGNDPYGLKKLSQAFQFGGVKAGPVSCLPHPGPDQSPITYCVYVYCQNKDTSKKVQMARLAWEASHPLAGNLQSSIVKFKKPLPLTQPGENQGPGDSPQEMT
# T cruzi repl: T. cruzi replication inhibition | inhibition, % (concentration not given with the values) | 300,000 compounds, 1.4% hits | AID 1885 | T. cruzi beta-gal in NIH3T3, luminescence, 90 h;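 active = mean inhibition across valid replicates above about 55%, limit read from the data; inconclusive = mean below that limit but half or more replicates reach it; inactive = mean below it, under half of replicates reach it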;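 note: signal also drops with host cell toxicity which is not excluded here; 0% = plate median of DMSO wells and 100% = zero luminescence signal; higher percent means less beta-gal luminescence so fewer parasites; stock transfer was 50 nL into about 50 µL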
# Active calls of the source: *; u = inconclusive; x = not tested or not shown; & = joins results of further samples. Random draw from the library; about 4.3% have a hit in one of these screens.
mol	RanGTP-Impb inh	AF4-AF9 inh	Vif TR-FRET	Calb FLC	A1 inh	Beta cell apopt	LANA-H2A inh	T cruzi repl
CCOC(=O)Cc1csc(N/C(=N/S(=O)(=O)c2cc(Br)ccc2OCC)c2ccccc2)n1	0.9	-1.3	x	9.7	-0.2	2.4	-3.7	-6.1
O=C(O)c1oc2ccc(Br)cc2c1-n1cccc1	1.8	x	x	-9.2	0.7	6.2	-1.5	-8.1
O=C(Nc1ccc2oc(-c3cccc(F)c3)nc2c1)c1ccccc1F	2.6	-73.1	-33.6%	10.1	0.8	49.7	3.8	14.9
CC1Cc2ccccc2N1Cc1cccc(S(=O)(=O)N(C)C)c1 (stereo not given)	1.4	6.0	-7.4%	-1.6	1.0	-1.1	0.5	9.4
CCOC(=O)c1ccc(NC(=O)CCC(=O)NCc2ccco2)cc1	-0.6	1.8	x	-7.9	0.9	-1.7	1.4	4.3
O=C(O)C1CC=CCC1C(=O)Nc1cccc(C(=O)N2CCCCC2)c1 (stereo not given)	-0.8	x	-3.6%	-2.6	0.2	-5.6	2.1	-12.1
CCOC(=O)C(NC(=O)N(C)C)(Nc1sc(C)c(CC)c1C#N)C(F)(F)F (stereo not given)	2.5	x	1.3%	19.2	-0.2	-11.2	3.8	-2.7
Cc1c(Cl)c([N+](=O)[O-])nn1CC(=O)NCC(C)C	u	-2.9	10.9%	-5.1	-0.1	-5.9	0.2	-2.6
Cc1sc2nc(SCC(N)=O)n(-c3ccccc3)c(=O)c2c1C	0.1	-3.5	11.2%	0.3	-0.3	-3.8	2.0	-3.3
COc1ccc(-n2cnnc2SCC(=O)Nc2cccc(S(N)(=O)=O)c2)cc1	1.5	-1.9	x	-1.9	1.0	-5.9	-6.9	-7.7
COC(=O)c1ccccc1NC(=O)Nc1ccc(Cl)cn1	-3.0	-0.9	-0.5%	-2.8	-0.6	-2.9	3.6	5.0
O=S(=O)(Nc1nc2ccccc2nc1Cl)c1ccccc1C(F)(F)F	1.1	1.1	18.2%	4.9	-0.2	-0.3	1.0	-11.4
CCCn1c(=O)c2ccccc2n2c(SCc3nnc(-c4ccccc4Br)o3)nnc12	10.6	-3.5	-17.2%&-16.1%	u	-1.1	-0.6	-9.3	-5.1
COC(=O)c1sc2ncn(CC(=O)NCCc3ccc(OC)c(OC)c3)c(=O)c2c1C	5.1	-1.3	-13.9%	-31.0	-0.9	-4.2	0.6	22.9
Cc1ccc(S(=O)(=O)N2CCOCC2)cc1NC(=O)COC(=O)c1ccc(Cl)nc1	x	-0.7	x	x	0.1	-5.7	1.1	x
CC(C)(C)N1CC23C=CC(C[C@@H]2C1=O)O3 (stereo not given in full)	-1.7	0.7	x	-8.4	1.1	-1.2	-5.9	-12.0
CCOC(=O)c1ccc(Nc2nc(C)cc(C)c2C#N)cc1	u	x	2.6%	-14.6	-0.4	2.3	0.0	14.8
COc1ccc(CN(C)C(=O)CCc2ccc(S(=O)(=O)N3CCCCCC3)cc2)c(OC)c1	x	-2.3	x	x	-1.2	2.5	-4.3	x
Cc1cc2nc(C)n(CCCNC(=O)Nc3ccc(F)cc3)c2cc1C	4.8	x	47.6µM*	-5.5	-0.1	-17.2	1.9	-1.6
COc1ccc(NC2CCCN(C(=O)c3ccc(OC)cc3OC)C2)cc1 (stereo not given)	2.3	5.2	x	3.0	-0.1	2.5	-1.8	14.4
O=S(=O)(CCN1CCOCC1)c1ccc(Cl)cc1	2.1	x	x	-28.2	0.2	x	-3.6	-20.8
Cc1ccccc1NC(=O)C(=O)NCCc1ccccc1	3.2	x	x	3.6	0.0	-0.4	-0.3	-13.9
Cn1cc(Br)c(C(=O)NNC(=O)c2ccccc2)n1	7.3	x	x	0.7	1.4	-7.0	-0.3	-5.1
Cc1cccc(NC(=O)CSc2nnc3ccc(-c4ccccn4)nn23)c1	2.1	-0.5	-4.8%	1.6	-0.4	1.0	3.5	-7.8
O=C(/C=C/c1cccc([N+](=O)[O-])c1)NCCN1C(=O)S/C(=C\c2ccc(F)cc2)C1=O	u	-1.7	x	-0.4	-0.1	0.1	-0.8	6.3
O=C(Nc1ccc(N2C(=O)c3cccc4cccc(c34)C2=O)cc1)c1ccc(N2CCCCC2)c([N+](=O)[O-])c1	-1.8	x	17.8%	25.0	-0.6	-1.2	-6.2	9.7
CC1CN=C(NC(=O)c2cccc([N+](=O)[O-])c2)S1 (stereo not given)	-2.9	2.0	x	-4.9	-8.5	1.4	-4.3	9.7
O=C1CN(C(=O)COC(=O)CNC(=O)c2ccc(Cl)cc2)c2ccccc2N1	1.0	-5.9	-14.5%	25.6	1.1	-16.7	6.3	-1.7
O=C(NC(=S)Nc1ccc(-c2nc3ncccc3o2)cc1)c1ccccc1F	0.2	-1.9	x	57.0	0.3	11.7	-9.7	9.9
CCOCCn1c(N2CCN(c3ccccc3)CC2)nc2c1c(=O)n(C)c(=O)n2C	3.4	x	4.4%	-7.2	1.1	4.2	-4.4	6.2
COc1cccc(-c2cc(C(F)(F)F)nc(-n3ccc([N+](=O)[O-])n3)n2)c1	0.3	-14.7	-2.3%	8.7	-0.3	-4.1	2.7	49.4
Cc1c(NC(=O)COC(=O)Cc2ccc(Br)cc2)c(=O)n(-c2ccccc2)n1C	x	-2.1	6.2%	x	-0.3	-1.2	x	x
Cc1ccc(/C=N/NC(=O)c2nnn(-c3nonc3N)c2CN(C)C2CCCCC2)cc1	6.7	2.0	x	x	-0.5	-4.9	-6.5	-11.1
CCOC(=O)C1=C(C)N(C)C(=S)NC1c1cccc(Cl)c1Cl (stereo not given)	3.3	4.6	0.5%	-14.1	0.2	-2.4	-5.6	14.0
COCCNC(=S)N/N=C(\C)c1cccc([N+](=O)[O-])c1	2.1	5.4	-5.9%	-1.6	0.3	9.7	1.4	-11.3
O=C(CSc1n[nH]c(-c2ccncc2)n1)Nc1ccccc1	3.7	3.7	x	-17.3	0.1	-1.6	-6.7	-11.3
CC(C1CC2CCC1C2)n1c(-c2cccs2)n[nH]c1=S (stereo not given)	1.0	-9.2	8.2%	7.0	-0.5	-7.4	-0.8	2.0
COc1ccc(C(=O)Nc2c(Cl)cc(Cl)cc2C(=O)NCc2ccco2)cc1	1.7	x	26.7%	5.1	-0.2	-1.0	1.3	-7.3
COc1ccccc1OCCNC(=O)c1cc(F)c(F)cc1Cl	0.6	-4.8	11.8%	-1.3	0.4	1.3	2.1	-3.0
CCOC(=O)NC(N(O)c1cccc(Cl)c1)C(Cl)(Cl)Cl (stereo not given)	1.4	1.6	-4.7%	-28.1	0.4	x	-1.7	-6.0
Cc1ccc(S(=O)(=O)N2CCN(C(=O)c3ccccc3OCc3c(C)noc3C)CC2)cc1	x	2.5	0.4%	x	-1.8	4.2	-8.3	x
CC(C)COC(=O)Nc1nnc(SCc2ccccc2F)s1	-0.9	x	-0.2%	u	-0.1	-5.6	2.4	13.4
O=[N+]([O-])c1ccc(Nc2c3ccccc3nc3ccccc23)cc1	24.6*	4.5	x	5.6	x	x	x	3.0
COc1cccc2cc(C(=O)Nc3cccc(C)n3)c(=O)oc12	-1.8	x	1.0%	-2.3	-5.5	-2.9	4.3	-14.0
CCCCn1c(=O)[nH]c2ccccc21	4.4	-6.3	-2.8%	1.5	-0.4	x	1.5	-9.4
Cc1cc2c(cc(C(=O)OC(C(=O)NCC3CCCO3)C(C)C)n2C)o1 (stereo not given)	-0.9	1.1	-0.5%	-23.0	0.2	-1.6	4.4	-0.8
O=C(NC1(Cc2ccc(O)cc2)CCCCC1)c1ccccc1	-1.8	-8.5	x	11.0	0.9	-2.4	-2.5	-25.0
CCOC(=O)c1cc(C)sc1NC(=O)CCC(=O)O	x	x	-1.7%	x	-0.1	5.8	-1.5	x
Cc1cccc(NC(=O)C2CCN(S(=O)(=O)c3ccc4c(c3)OCCO4)CC2)n1	3.6	0.8	-4.6%	2.5	0.0	-2.6	-1.2	-19.2
CC1CCOC2(O1)C(=O)N(CN1CCN(c3cccc(Cl)c3)CC1)c1ccccc12 (stereo not given)	2.7	x	16.9%	-5.6	1.3	-5.3	-2.5	-37.7

# More structures follow.
mol	RanGTP-Impb inh	AF4-AF9 inh	Vif TR-FRET	Calb FLC	A1 inh	Beta cell apopt	LANA-H2A inh	T cruzi repl
CN(C)C(=O)CCC(=O)N1CCCC(N2CCN(c3cccc(C(F)(F)F)c3)CC2)C1 (stereo not given)	1.1	0.2	x	-6.3	-0.8	x	-3.5	-3.2
COc1ccc(NC(=O)COc2ccc3c(c2)OCO3)cc1	26.0	1.9	x	-9.7	-0.3	4.6	6.5	-10.9
S=c1nc(-c2ccccc2)n(CCN2CCOCC2)c2c1CCCC2	u	x	0.6%	19.8	-0.8	1.1	3.4	14.0
CN1CCN(C(=O)c2ccccc2NC(=O)c2cccs2)CC1	-0.1	x	2.4%	-2.6	0.2	1.8	0.3	7.8
CCn1nc(NS(=O)(=O)c2cccc3nonc23)c2cc3ccc(C)cc3nc21	-0.2	x	3.2%	-4.7	-1.0	-0.4	-2.1	4.6
CC(=O)Nc1ccc(SC[C@H](C)CN2CC[C@H](C(C)(C)C)CCC2=O)cc1	x	-6.0	x	x	1.0	5.6	-4.4	x
CSC(=NC#N)N1CCN(c2c(C)cccc2C)CC1	5.7	-3.1	4.1%	-8.4	0.0	-0.8	-0.6	7.5
COc1cc(C(=O)Nc2ccc(C)cn2)ccc1OCC(=O)N1CCOCC1	x	-5.2	1.8%	x	-1.7	0.5	1.3	x
Cc1ccc(-n2c(CSc3nc(C)cc(C)n3)nnc2SCC(=O)NCc2ccco2)cc1	2.7	x	28.8%	-6.4	-0.5	-1.9	-0.6	3.7
Cc1c(CCC(=O)N[C@@H](CC(C)C)C(=O)O)c(=O)oc2c(C)c3oc4c(c3cc12)CCCC4	-2.6	-0.8	-9.8%	-3.6	0.4	-1.2	3.0	-0.4
COc1cc(C(=O)O)ccc1O	-2.6	-3.4	11.4%	-1.1	-0.9	-4.2	-5.1	-0.2
COc1ccc(CNC(=O)CN2C(=O)CSc3ccc(S(=O)(=O)N4CCOCC4)cc32)cc1	u	1.7	0.6%	-5.9	0.1	0.2	2.3	-0.7
CC(C)CNS(=O)(=O)c1ccc(CCC(=O)O)cc1	-0.2	x	0.6%	-7.3	0.1	-0.5	-0.4	-8.1
O=S(=O)(c1cccc2cccnc12)N1CCN(Cc2ccccc2)CC1	-3.0	-1.6	0.3%	-9.4	0.4	-10.3	-1.4	-7.9
O=C(c1ncc[nH]1)c1ccco1	-1.3	x	2.1%	-1.8	0.7	-3.1	3.8	9.0
Cc1nn(C)cc1CN(C)S(=O)(=O)c1cccc([N+](=O)[O-])c1	-2.9	1.4	4.8%	4.6	-0.6	2.9	2.7	1.0
CC(=O)CSc1nc2c(c(=O)[nH]c(=O)n2C)n1Cc1ccccc1Cl	2.6	-3.5	-3.7%	6.0	1.1	-0.4	0.9	0.3
O=C(c1cccc(C(F)(F)F)c1)C1CCCN(C(=O)c2cc(C3CC3)[nH]n2)C1 (stereo not given)	5.0	-0.4	x	-3.5	1.5	2.3	-1.0	6.5

# Screening data from PubChem BioAssay.
